# Source: PubChem BioAssay (ICCB-Longwood Screening Facility, Harvard Medical School)
# Choline anaer gr: blocks anaerobic gram-negative growth on choline. Gram-negative bacterium anaerobic choline minimal medium, absorbance growth; hits give low values; many inactives read as strong as hits in the columns shown. calls only. 55,000 tested, 0.2% active. AID 1963822;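 active means growth z-score on choline under -2 at 7 or 20 h with little or no fall on glycerol, limits in tiers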;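 further: stock transfer was 300 nL into about 50 µL; the organism is E. coli; final concentration not given here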
# Choline anaer gr early: also measured in Choline anaer gr; calls as there; z-score; measured here: choline growth z-score, timepoint 1;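 score of optical density at 7 h as mean of two plates; lower means less growth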
# Active calls of the source: *; i = inactive; & = joins results of further samples.
Choline anaer gr | Choline anaer gr early | structure
i | 1.95 | COC(=O)c1scc(-c2ccccc2)c1S(=O)(=O)N1CCc2ccccc2C1
i | -0.38 | Cc1ccc(S(=O)(=O)c2cnc(N3CCN(c4cccc(Cl)c4)CC3)nc2N)cc1C
i | 0.17 | Cc1c(N2CCN(C(=O)c3cc4ccccc4[nH]3)CC2)c(=O)n(C)c(=O)n1C
i | -0.79 | CCN(CC)c1cc(C)c2cc(NC(=O)Nc3ccc(Br)cc3)ccc2n1
i | -0.03 | Cc1cc(Nc2ccccc2)n2ncc(-c3ccc(F)cc3)c2n1
i | 0.45 | C=CCN1CCN(c2ccc3nnc(CCc4nc(-c5ccc(F)cc5)no4)n3n2)CC1
i | 0.61 | CCC(C)NCc1ccc(OCc2ccc3c(c2)n(C)c(=O)n3C)c(OC)c1 (stereo unspecified)
i | 1.28 | O=C(CCc1nc(CSc2nc3ccccc3s2)no1)Nc1c(F)cccc1F
i | -0.84 | CCc1onc(C)c1C1CCCN1Cc1cccnc1 (stereo unspecified)
i | -0.54 | COc1ccc(C(=O)NCCc2nc(-c3ccccc3)no2)cc1
i | 0 | Cc1cccc(-c2nn3c(=O)cc(CSc4nc5ccccc5[nH]4)nc3s2)c1
i | 0.3 | Cc1ccc2ncc(S(=O)(=O)c3ccccc3)c(N3CCCC(C)C3)c2c1 (stereo unspecified)
i | -1.03 | CCCN1CCN(S(=O)(=O)c2cc(-c3noc(CC)n3)sc2C)CC1
i | 0.63 | CN(C)c1nc2ncn3c(=O)n(CC(=O)NCc4ccc(F)cc4)nc3c2s1
i | 0.28 | COc1cccc(N2CCN(C(=O)CCCn3c(=O)[nH]c4ccc(Br)cc4c3=O)CC2)c1
i | 1.42 | Cc1cccc(NC(=O)NC(Cc2ccccc2)Cc2ccc3c(c2)OCO3)c1 (stereo unspecified)
i | 0.65 | Cc1nnc(SCc2cc(=O)n3c(nc4ccccc43)[nH]2)s1
i | -0.28 | CCC1CCCCN1C(=O)Cn1c(=O)n(Cc2ccccc2)c(=O)c2c1c(C)nn2CC (stereo unspecified)
i | 0.29 | CN(C)CCn1cnc2scc(-c3ccccc3)c2c1=O
i | 0.82 | CC(C)CCNS(=O)(=O)c1ccc(-c2cc(C(F)(F)F)on2)o1
i | -1.15 | CCS(=O)(=O)Nc1cnc(N2CCNCC2)c(C(=O)N(CC(C)C)CC(C)C)c1
i | -0.36 | Cc1ccc(-c2cc(N3CCN(C(=O)c4ccccc4Br)CC3)ncn2)cc1
i | -0.46 | O=C(O)c1cc(NS(=O)(=O)c2cc(F)ccc2F)ccc1N1CCN(C2CCCCC2)CC1
i | -0.04 | O=S(=O)(NCCN1CCOCC1)c1cc(-c2noc(C3CCCC3)n2)cs1
i | -0.15 | COc1ccccc1N1CCN(c2ncc(NC(=O)c3ccc(Cl)cc3)cc2C(=O)O)CC1

# Given with each value named: part of the list above.
structure: CCS(=O)(=O)Nc1cnc(N2CCNCC2)c(C(=O)N(CC(C)C)CC(C)C)c1
  Choline anaer gr = i | Choline anaer gr early = -1.15
structure: Cc1ccc(-c2cc(N3CCN(C(=O)c4ccccc4Br)CC3)ncn2)cc1
  Choline anaer gr = i | Choline anaer gr early = -0.36
structure: O=C(O)c1cc(NS(=O)(=O)c2cc(F)ccc2F)ccc1N1CCN(C2CCCCC2)CC1
  Choline anaer gr = i | Choline anaer gr early = -0.46
structure: O=S(=O)(NCCN1CCOCC1)c1cc(-c2noc(C3CCCC3)n2)cs1
  Choline anaer gr = i | Choline anaer gr early = -0.04

# New compounds follow.
Choline anaer gr | Choline anaer gr early | structure
i | 0.18 | Brc1ccc(-c2nc(-c3ccc4c(c3)ncn4C3CCCC3)no2)o1
i | 0.12 | CCCNC(=O)c1cc(-c2cccnc2)nc2ccccc12
i | 0.97 | Cc1ccccc1-c1nn2c(=O)cc(N3CCN(C(=O)Nc4cccc(F)c4)CC3)nc2s1
i | 1.17 | CS(=O)(=O)Nc1cccc(C2=NN(C(=O)CCCC(=O)O)C(c3ccc(F)cc3)C2)c1 (stereo unspecified)
i | -1.83 | COc1ccc(S(=O)(=O)NCc2nc3cccnc3n2C2CC2)cc1
i | -0.26 | CCOC(=O)c1c(C)[nH]c(C)c1S(=O)(=O)NCC(=O)N1c2ccccc2CC1C (stereo unspecified)
i | 0.25 | NS(=O)(=O)c1ccc(CCNC(=O)CCC(=O)N2CCOc3ccc(Cl)cc32)cc1
i | 0.65 | O=C(NC1CC1)C1CC(=O)N(c2ccc3c(c2)CCN3C(=O)C2CCC2)C1 (stereo unspecified)
i | -0.54 | CCCNS(=O)(=O)c1c(C)[nH]c(-c2nnc(C3CCC3)o2)c1C
i | -0.26 | COc1ccc(C2CC(=O)Nc3c2c(C)nn3-c2ccc3nnc(C)n3n2)cc1Br (stereo unspecified)
i | 1.46 | O=S(=O)(c1ccccc1)N1CCn2cccc2C1c1ccccc1 (stereo unspecified)
i | -0.61 | O=C(NCc1ccc2c(c1)OCO2)C1CCCN(c2ncc(-c3ccc(F)cc3)cn2)C1 (stereo unspecified)
i | -0.11 | CCOc1ccc(NC(=O)N2CCN(Cc3nc4cc(C(=O)N5CCCC5)ccc4o3)CC2)cc1
i | 0.31 | Cc1cccc(CSc2nc(=O)n(CC3CCCO3)c3c2CCC3)c1 (stereo unspecified)
i | -0.39 | Clc1cccc(-c2ccc(CNCCCn3ccnc3)o2)c1
i | -0.04 | O=C(NC1CC1)c1csc(N2CCCC2)n1
i | 0.87 | O=C(c1ccc(Cl)cc1)N1CCN(C(=O)c2cc3ccccc3[nH]2)CC1
i | -0.33 | O=S(=O)(c1ccc2c(c1)-c1oncc1CO2)N1CCCCCC1
i | 0.54 | NS(=O)(=O)c1ccc(NC(=O)c2ccc3c(c2)CCCN3S(=O)(=O)c2ccccc2)cc1
i | 2.93 | CCc1nc(N2CCOCC2)c2onc(-c3ccc(C)cc3)c2n1
i | 0.21 | COc1ccc(NC(=O)C2CCCN(C(=O)C3Sc4ccccc4NC3=O)C2)cc1 (stereo unspecified)
i | -0.38 | Cc1ccc(C2C=C(c3ccc(Cl)cc3)Nc3nc(NS(=O)(=O)c4ccccc4)nn32)cc1 (stereo unspecified)
i | -0.12 | Cc1cc(C(Nc2ccccn2)c2cccnc2)c(NC(=O)c2ccccc2)s1 (stereo unspecified)
i | 1.15 | Cc1ccc(C)c(OCc2cc(=O)n3ccsc3n2)c1
i | -0.62 | Cc1nc(-c2ccc(N3CCN(C(=O)Nc4cccc(Cl)c4)CC3)cc2)no1

# In a second layout: entries from further up.
COc1ccc(NC(=O)C2CCCN(C(=O)C3Sc4ccccc4NC3=O)C2)cc1 (stereo unspecified)
  Choline anaer gr = i | Choline anaer gr early = 0.21

Cc1ccc(C2C=C(c3ccc(Cl)cc3)Nc3nc(NS(=O)(=O)c4ccccc4)nn32)cc1 (stereo unspecified)
  Choline anaer gr = i | Choline anaer gr early = -0.38

Cc1cc(C(Nc2ccccn2)c2cccnc2)c(NC(=O)c2ccccc2)s1 (stereo unspecified)
  Choline anaer gr = i | Choline anaer gr early = -0.12

# The results go on.
Choline anaer gr | Choline anaer gr early | structure
i | 1.19 | CCc1ccc(C(=O)C2=CN(c3ccc(OC)cc3)c3ccc(F)cc3S2(=O)=O)cc1
i | -0.51 | O=C(c1cnc2ccccc2c1S(=O)(=O)c1ccccc1)N1CCCCC1
i | -1.91 | Cc1[nH]c(C(=O)N2CCC(CC(=O)NCc3ccccc3F)CC2)c(C)c1C(=O)OC(C)C
i | -0.29 | Cc1noc2c1C(c1ccccc1F)C1=C(CC(c3ccccc3O)CC1=O)N2 (stereo unspecified)
i | -1.45 | Cc1nc(CCNC(=O)[C@H]2CSCN2S(=O)(=O)c2ccc(F)c(Cl)c2)cs1
i | 0.51 | Cc1ccc(-c2csc(-n3[nH]c(C)c(CC(=O)N4CCCC4)c3=O)n2)cc1
i | 0.22 | CC1(C)S[C@@H]2[C@H](NC(=O)[C@H](NC(=O)N3CCNC3=O)c3ccccc3)C(=O)N2[C@H]1C(=O)O
i | 1.39 | O=C(CN1CCN(S(=O)(=O)c2ccc3c(c2)CCCC3)CC1)Nc1nnc(-c2ccccc2)s1
i | 1.72 | O=C(NC1CCCCC1)C1CCN(c2nccn3nc(-c4ccccc4)cc23)CC1
i | 0.46&0.34 | CN1CCc2cc(Cl)c(O)cc2[C@@H](c2ccccc2)C1
i | 0.09 | CN(C)C(CNC(=O)c1sc2ccccc2c1Cl)c1cccs1 (stereo unspecified)
i | 1.08 | CC(=O)OCC(=O)[C@@]12OC3(CCCC3)O[C@@H]1C[C@H]1[C@@H]3CCC4=CC(=O)C=C[C@]4(C)[C@@]3(F)[C@@H](O)C[C@@]12C
i | 0.59 | Cc1cc(NC(=O)c2ccc(C(C)(C)C)cc2)n(-c2ncnc3c2cnn3-c2ccccc2)n1
i | 0.31 | C=C(C)Cn1c(SCCC)nc2sc3c(c2c1=O)CC(C)(C)OC3
i | 0.65 | Cc1ccc(NC(=O)c2ccc3c(c2)S(=O)(=O)N=CN3CCc2ccccc2)cc1
i | 0.45 | Cc1cc(C)n(-c2nc3c(c(=O)n2CC(=O)NC(C)C)CCCC3)n1
i | 0.51 | CCCN1CCN(S(=O)(=O)c2c(C)[nH]c(C)c2-c2nnc(C3CCC3)o2)CC1
i | 0.37&0.02 | COC(=O)[C@H](NC(=O)c1cc(-c2ccccc2)nc2ccccc12)c1ccccc1
i | 0.81 | COc1ccc(OC)c(S(=O)(=O)N2CCN(c3cc(N4CCCCC4)nc(C)n3)CC2)c1
i | 0.17 | CCn1nc(C)c2ccnc(N3CCC(C(=O)N4CCN(c5ccc(Cl)cc5)CC4)CC3)c21
i | 1.18 | COc1ccc(Cn2nnc3cc(C(=O)NCc4ccccc4Cl)ccc32)cc1
i | 0.21 | O=C1COc2ccc(S(=O)(=O)N3CCCC3C(=O)Nc3ccc(F)c(Cl)c3)cc2N1 (stereo unspecified)
i | 0.56 | CCOc1ccc(NC(=O)c2oc3ccc(C)cc3c2C)c2cccnc12
i | -2.82 | O=C(NCCCN1CCCCC1)C1=C2CCCN2c2ccc(F)cc2S1(=O)=O
i | 0.01 | COc1cc(OC)c(NC(=O)NCCn2c(-c3ccncc3)nc3cccnc32)cc1Cl
i | -1.1 | CCCCCCCCCCCCCCCCOC[C@H](COP(=O)([O-])OCCCCCC[N+](C)(C)C)OC(C)=O
i | 0.46 | c1ccc(-c2nc3ccccc3c3nnc(SCc4ccncc4)n23)cc1
i | 0.04 | CCCN(CCC)c1ncc(S(=O)(=O)c2ccc(C)cc2C)c(N)n1
i | 0.07 | Cc1ccc(CN2CCN(C3CCN(S(C)(=O)=O)CC3)C(=O)C2=O)cc1
i | -1.5 | COc1ccc(N2C(=O)CCS2(=O)=O)cc1S(=O)(=O)NCC1CCCO1 (stereo unspecified)
i | -0.33 | Cc1cc(NC(=O)NC(c2ccccc2)c2nnc(-c3ccccc3)o2)ccc1Br (stereo unspecified)
i | 1.21 | CCOC(=O)C1CCN(C(=O)c2cc(N(C)S(=O)(=O)c3ccccc3)ccn2)CC1
i | 0.74 | O=C(O)c1cc(NC(=O)c2ccc(Cl)cc2)cc(C(=O)O)c1
i | -1.81 | O=C1CC(C(=O)Nc2ccc3c(c2)OCO3)n2ncnc2N1 (stereo unspecified)
i | 0.66 | Cc1ccc(S(=O)(=O)CCc2nc(-c3ccc4c(c3)Sc3ccccc3C(=O)N4C)no2)cc1
i | -0.91 | CC(=O)Nc1ccc(-c2noc(C3CCCN(C(=O)Cc4ccc(Br)cc4)C3)n2)cc1 (stereo unspecified)
i | 1.39 | CC(C)c1ccc(S(=O)(=O)Nc2cccc(-c3nnc(-c4ccccc4)o3)c2)cc1
i | -0.07 | Cc1ccccc1NC(=O)C1CCN(Cc2cnn(-c3ccccc3)c2-n2cccc2)CC1
i | 1.54 | CCc1ccc2occ(CC(=O)Nc3c(C(=O)c4ccccc4)oc4ccccc34)c2c1
i | -0.21 | COCCNC(=O)Cn1ccc2c(SCc3ccc(OC)cc3)nccc21
i | 0.58 | Cc1ccc2nc(NC(=O)NC3CC(=O)N(c4ccc5c(c4)OCCO5)C3)sc2c1 (stereo unspecified)
i | 1.95 | O=C(Cn1nc2c(N3CCOCC3)nc3ccccc3n2c1=O)NCc1ccccc1Cl
i | 3.41 | COc1ccc(-c2noc(CSc3nc4ccsc4c(=O)[nH]3)n2)cc1
i | -2.66 | CCCCN1CCN(S(=O)(=O)c2cc(-c3nnc(CC)o3)co2)CC1
i | -0.52 | C=CCNC(=O)CCc1nc2sc3c(c2c(=O)[nH]1)CCCCC3
i | 0.96 | O=C(NCCC1=CCCCC1)c1cnc2sc3c(n2c1=O)CCC3
i | 0.67 | CN(CCNC(=O)CCc1cn(-c2ccccc2)nc1-c1ccc2c(c1)OCO2)Cc1ccccc1
i | 0.44 | CCCCC(C)(C)[C@H](O)/C=C/[C@H]1C=CC(=O)[C@@H]1CCCCCCC(=O)O
i | -0.25 | CCCNC(=O)CN1C(c2ccccc2)=CC(c2ccccc2)n2nnnc21 (stereo unspecified)
i | -0.31 | Cn1ccc2cc(S(=O)(=O)N3CCC(C(=O)N4CCN(c5ccccc5)CC4)CC3)ccc21

# Continuation.
Choline anaer gr | Choline anaer gr early | structure
i | -0.3 | O=C(NCCC1=CCCCC1)c1cc(-c2ccccn2)nc2ccc(S(=O)(=O)N3CCOCC3)cc12
i | -1.03 | Cc1cc(NC(=O)CSC2=Nc3ccccc3N=C(c3ccccn3)C2)ccc1Br
i | 1.42 | COc1ccc(S(=O)(=O)N2CCn3cccc3C2c2ccccc2)cc1OC (stereo unspecified)
i | -0.64 | Cc1ccc(NC(=O)c2nnc(CCCC(=O)NCc3ccccn3)s2)cc1
i | -1.59 | Cc1nc2sccn2c(=O)c1NC(=O)C1CCCCC1
i | 1.22 | Cc1ccc(Cl)cc1NS(=O)(=O)c1c(C)sc(C)c1-c1ccno1
i | -0.12 | O=C(Nc1cccc(S(=O)(=O)N2CCOCC2)c1)c1cnn2c(C(F)F)cc(-c3ccccc3)nc12
i | 0.25 | COC(=O)CNC(=O)N1CCCC1c1c(C)noc1C (stereo unspecified)
i | 0.91 | O=C(NCCC1=CCCCC1)c1[nH]nc2c1CCc1ccccc1-2
i | 0.94 | CCN(c1ccccc1)S(=O)(=O)c1ccc2[nH]cc(C(=O)NCCc3ccc(OC)c(OC)c3)c(=O)c2c1

# These rows are one share of the data. The share of hits here may be higher or lower than overall.
